From PubChem
MgrA DNA FP – S. aureus MgrA-DNA binding modulation | fluorescence polarization | inhibition, %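 (about 10 µg/mL by stock and volumes)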 | 0.13% of 84,000 active;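 active = above 50% in either of two replicates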;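 also: 0% = protein plus DNA without compound and 100% = DNA alone without protein; higher means less MgrA bound to DNA so lower polarization; one replicate is shown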
S aureus helic – blocks Staphylococcus aureus DNA helicase | purified S. aureus helicase, fluorescence unwinding assay; about half of the hits fall short of the stated cut | inhibition, %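 (tested at about 80 µM)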 | 0.05% of 120,000 active;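 active = both duplicates at 50% or more, or one of them with a favoured structure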;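 also: 0% = mean of negative control wells and 100% = mean of positive control wells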
* hit, by the source's call; x = not tested or not shown; & = joins results of further samples. Not all compounds are listed (hit frequency here may not be typical).

SMILES	MgrA DNA FP	S aureus helic
COC(=O)CSC1=C(C#N)C(c2ccco2)C(C(=O)Nc2ccccc2)=C(C)N1 (stereo unspecified)	x	17
FC(F)(F)CNC1CCN(Cc2ccccc2)CC1	x	-1
O=C1OCCC1OC(=O)C1c2ccccc2Oc2ccccc21 (stereo unspecified)	x	-14
CC12CCC(=O)N1C(C(=O)NC1CCCc3ccccc31)CS2 (stereo unspecified)	x	-6
N#CC(C(=O)Nc1ccccc1)=C1CCCC1	1.4	-2
COC(=O)c1ccc2c(=O)n(NC(=O)C3CC3)c(=S)[nH]c2c1	1.6	-3
COCCNC(=O)CN1CCC(NC(=O)c2ccco2)CC1	-2.2	18
N#Cc1ccc(N2CCOCC2)cc1	-1.4	x
Cc1ccc(SCC(=O)c2cc(C)c(O)c(C)c2)cc1	1.5	x
O=C(O)CC1N=C(Nc2nc3ccccc3o2)NC1=O (stereo unspecified)	-0.3	-11
CC1Cc2ccccc2O1 (stereo unspecified)	x	-9
O=c1[nH]c2nc3ccccc3n2c(O)c1Cc1ccccc1	x	-15
O=C(NCCCN1CCCC1=O)c1cc(-c2ccc(F)cc2)nc2ccccc12	0.3	4
O=C(Cc1nc2ccccc2[nH]1)N1CCOCC1	-0.2	6
COc1ccc(-c2nsc(SCC(=O)N3CCCCC3)n2)cc1	x	6
O=C(CN1C(=O)c2ccccc2C1=O)NCc1ccccc1	x	20
CCn1c(SCC(=O)NC(C)c2ccccc2)nnc1-c1ccccc1OC (stereo unspecified)	x	4
COc1ccc(OCC(=O)NCc2ccncc2)cc1	x	0
O=c1[nH]c2cc3[nH]c(=O)c(=O)c3cc2c1=O	0.9	1
COc1ccc(/C=N/NC(=O)Cn2ccnc2C)cc1	x	3
N#Cc1cnn(-c2nc3ccccc3s2)c1N	x	10
O=C(CN1C(=O)c2ccccc2S1(=O)=O)NCc1ccccc1Cl	-0.5	11
c1ccc2c(N3CCC4(CC3)OCCO4)nnc(Cc3ccncc3)c2c1	4.8	9
O=C(NC(Sc1ccncn1)C(=O)c1ccccc1)c1ccccc1 (stereo unspecified)	x	13
CCOC(=O)Cn1c(=O)oc2cc(S(=O)(=O)N3CCC(C)CC3)ccc21	x	4
Continued:
SMILES	MgrA DNA FP	S aureus helic
N#Cc1ccccc1NC(=O)COC(=O)c1ccccc1C(=O)N1CCCC1	x	3
Brc1cccc(-c2nc3ccccc3[nH]2)c1	x	12
CCOc1ccc(-c2csc(Cn3c(CN4CCN(C)CC4)nc4ccccc4c3=O)n2)cc1	x	4
OC1CCCN(Cc2ccc(Br)cc2)C1 (stereo unspecified)	-2.1	12
Cc1cc(C)c2c(-n3cccc3)c(C(=O)NCCCN3CCN(c4ccc(F)cc4)CC3)sc2n1	4.6	9
O=C(NC1CCS(=O)(=O)C1)c1cc(-c2ccc(Cl)cc2)oc1C(F)(F)F (stereo unspecified)	3.9	x
C=CCOc1cccc(C2C(C(=O)c3cccs3)=C(O)C(=O)N2CCN(C)C)c1 (stereo unspecified)	x	16
CC1CCCCC1NC(=O)CN(C)S(=O)(=O)c1ccc(Cl)cc1 (stereo unspecified)	x	-14
O=C(NC1CCCc2ccccc21)c1cnn(-c2ccccc2)c1-n1cccc1 (stereo unspecified)	-0.9	8
O=C(O)c1cccc(CN2C(=O)c3ccccc3C2=O)c1	x	-20
CCCCCCc1cc2c(=O)c(-c3csc(C)n3)coc2cc1OCC(=O)OCC	-0.6	x
N#Cc1c(-c2ccco2)cc(-c2cccs2)nc1N	4.9	x
CCOC(=O)/C=C1\SC(C)C(=O)N1CC(=O)N(CCC#N)c1ccccc1 (stereo unspecified)	x	10
COC(=O)c1ccccc1S(=O)(=O)/C(C#N)=C/Nc1nc(SC)nc(C2CC2)n1	-1.2	x
CC(Oc1ccccc1)c1nc2ccccc2n1C (stereo unspecified)	6.3	17
COc1ccc(NC(=O)C(C)Oc2ccc3c(-c4ccccc4)cc(=O)oc3c2)cc1 (stereo unspecified)	0.8	-12
CCOC(=O)C(C)Oc1cc2oc(=O)c3c(c2cc1Cl)CCC3 (stereo unspecified)	x	-2
CC(C)(C)OC(=O)NCc1ccc(C(=O)O)cc1	x	20
Cc1cc2nc(CSc3ccccc3NC(=O)c3ccc4c(c3)OCO4)cc(=O)n2o1	x	-15
CC(C)Cc1c(O)nc(SCC(=O)NC(C)(C)C)[nH]c1=O	1.6	3
O=C(c1cccs1)n1cc(C(F)(F)F)ccc1=O	x	16
Cc1ccc(S(=O)(=O)N2CCC(CNC(=O)c3cccs3)CC2)cc1	-5.1	5
O=C(CSc1ncnc2sc(-c3ccccc3)cc12)NC1CCS(=O)(=O)C1 (stereo unspecified)	x	2
COc1ccc(C2CC(=O)C3=C(C2)Nc2ccccc2NC3c2cc(Br)c(O)c(OC)c2)cc1 (stereo unspecified)	-0.6	x
O=C(O)c1ccc(N=NSCCO)cc1	6.8	6

Some of the entries above, set out differently:
MgrA DNA FP,S aureus helic,Structure
1.6,3,CC(C)Cc1c(O)nc(SCC(=O)NC(C)(C)C)[nH]c1=O
x,16,O=C(c1cccs1)n1cc(C(F)(F)F)ccc1=O
-5.1,5,Cc1ccc(S(=O)(=O)N2CCC(CNC(=O)c3cccs3)CC2)cc1
x,2,O=C(CSc1ncnc2sc(-c3ccccc3)cc12)NC1CCS(=O)(=O)C1 (stereo unspecified)
-0.6,x,COc1ccc(C2CC(=O)C3=C(C2)Nc2ccccc2NC3c2cc(Br)c(O)c(OC)c2)cc1 (stereo unspecified)
6.8,6,O=C(O)c1ccc(N=NSCCO)cc1

Next records follow.
SMILES	MgrA DNA FP	S aureus helic
Cc1c(C)c(C)c2c(c1C)NC(c1cc(Cl)cc(Cl)c1O)N2	1.7	x
CCN1C(=O)/C(=N\N=C2\C(=O)N(CC)c3ccccc32)c2ccccc21	x	3
COc1ccc(C(=O)Nc2cccnc2Sc2ccc(Cl)cc2)cc1	-2.8	x
CC(=O)N(c1ccccc1)C1SC(=O)N(c2ccc(C)cc2)C1=O (stereo unspecified)	x	-8
O=C(OCC(=O)N1CCOCC1)c1ccc(S(=O)(=O)NCc2ccco2)cc1	x	-15
O=C1/C(=C\c2ccccc2O)SC(=Nc2ccccc2)N1Cc1ccccc1	0.8	-16
N#Cc1c(-c2ccc(Cl)cc2)[nH]c(SCc2ccccc2)nc1=S	11	x
O=C(NCCO)c1cc2c(s1)CCC2	0.7	-12
Cc1cc(C(=O)O)c(C)n1Cc1ccc(S(N)(=O)=O)cc1	x	-5
CN(C)C(=O)C(CCN1CCC(O)(c2ccc(Cl)cc2)CC1)(c1ccccc1)c1ccccc1	0.1&-1.2&0.2	x
CCOC(=O)c1ccc(CNC(=O)CSc2nnnn2-c2ccc(Cl)cc2)o1	x	5
O=C(Nc1ccc2c(c1)OCO2)c1cccs1	4.9	11
Cc1ccc(SC(C)C(=O)N2CCC(C(N)=O)CC2)cc1 (stereo unspecified)	-2.5	2
O=C1c2ccccc2NC(c2cccc(F)c2)N1Cc1ccccc1 (stereo unspecified)	-2.7	3
COc1ccc(CNC(=O)/C=C/C(=O)O)cc1	-9.1	x
Cc1ccnc(NC(=O)Cn2ncc3c2-c2cc(C)ccc2OC3)c1	12	3
O=C(OCC1COc2ccccc2O1)c1cc(F)c(F)c(F)c1F (stereo unspecified)	0.2	-2
COc1cccc(NC(=O)COC(=O)Cc2ccc(F)cc2)c1	1.8	-19
O=C(O)c1ccc2c(c1)N(Cc1ccc(Cl)cc1)CCS2	1.9	13
CCC(=O)OCC(=O)C1(OC(=O)CC)C(C)CC2C3CCC4=CC(=O)C=CC4(C)C3(Cl)C(O)CC21C (stereo unspecified)	0.6	x
CC(C)n1cc(C(=O)c2ccccc2O)cc1-c1nnc(-c2ccccc2)o1	x	5
O=C(Nc1c(NC2CCCCC2)c2ccccc2oc1=O)c1ccco1	x	-21
O=C(CSc1nc2ccccc2c(=O)[nH]1)NC1CCCC1	-1.0	-7
NC(=O)CS(=O)(=O)c1nc2ccccc2n1Cc1ccccc1	-3.4	0
Cc1ccc(CNC(=O)CCn2c(=O)c3cccn3c3cccnc32)cc1	x	-25
Next section:
SMILES	MgrA DNA FP	S aureus helic
O=C(c1cccs1)C1C(=O)c2ccccc2C1=O	1.1	-17
O=C(NN1CCCCC1)c1oc2ccccc2c1COc1ccccc1	x	17
O=C(c1ccc(-c2ccccc2)cc1)N1CCOCC1	x	-5
COc1ccc(N=C2NC(=O)C(CC(=O)Nc3ccc(OC)cc3)S2)cc1 (stereo unspecified)	1.2	7
Nc1c(S(=O)(=O)c2ccccc2)sc2nc(-c3cccs3)cc(C(F)(F)F)c12	0.8	10
Cc1ccccc1CN1C(=O)/C(=C\c2ccc(C(=O)NCc3ccco3)cc2)Sc2ccccc21	-0.8	0
O=C1NC(c2ccccc2Cl)Nc2sc3c(c21)CCCC3 (stereo unspecified)	0.6	16
O=C1c2ccccc2-c2onc3c(Cl)ccc1c23	x	-78
O=C1C2C3C=CC(C3)C2C(=O)N1CN1CCCCC1 (stereo unspecified)	0.2	10
O=S(=O)(Cc1ccc(Cl)cc1)C1CCCCC1O (stereo unspecified)	2.2	x
CN(Cc1nc(-c2ccccc2)no1)C(=O)NC1CCCCC1	0.6	19
CCCN1CC2=C(NC(=S)NC2c2ccc(N(C)C)cc2)/C(=C/c2ccc(N(C)C)cc2)C1 (stereo unspecified)	1.4	-2
CCOC(=O)Cc1nnc(SCc2cc(=O)n3c4c(sc3n2)CCCC4)n1Cc1ccco1	x	16
Cc1ccc(C(CC(=O)c2ccco2)SCc2ccco2)cc1 (stereo unspecified)	-1.9	1
O=C(c1cccc(C(F)(F)F)c1)N1CCc2c([nH]c3ccccc23)C1C(F)(F)F (stereo unspecified)	-1.2	x
CCOC(=O)c1cnc2c(OC)cccc2c1N1CCC2(CC1)OCCO2	3.3	7
CCC(O)C12CC3CC(CC(C3)C1)C2 (stereo unspecified)	-2.1	11
O=C(N=Nc1c(O)[nH]c2ccccc12)C(O)c1ccccc1 (stereo unspecified)	x	-15
Cc1ccc(-c2ccc(=O)[nH]n2)cc1	x	0
CC1(C)CC(=O)C(C=NCC(N)=O)=C(O)C1	-0.6	11
O=C(CSc1nc(-c2ccccc2)cc(=O)[nH]1)Nc1ccccc1	2.3&-0.8	11&4
CN(c1ccc(OCC(=O)NCC(F)(F)F)cc1)S(=O)(=O)c1ccccc1	x	-1
O=C(NCc1ccc2c(c1)OCO2)C1CCCCC1	1.2	-3
Cc1ccc(Cl)cc1NC(=O)COC(=O)c1n[nH]c2ccccc12	-2.2	-3
Cn1c(-c2ccccc2)n[nH]c1=S	1.1	11
Other records.
SMILES	MgrA DNA FP	S aureus helic
COc1ccc(/C=C(\C#N)c2ccc(OC)cc2)cc1	3.8	x
Cc1cccc(NC(=O)C23CC4CC(C2)CC(n2nnc(C)n2)(C4)C3)c1	1.1	4
CSc1nnc(SCc2nc3ccccc3[nH]2)s1	x	6
Cc1onc(-c2ccccc2)c1C(=O)OCC(=O)N1CCCc2ccccc21	x	8
O=C(Cc1ccccc1)NCCc1c[nH]c2ccccc12	-1.2	14
Cc1cc(C(=O)OCc2cscn2)c2ccccc2n1	x	13
CCn1nnc(NC(=O)c2ccccc2)n1	-0.8	2
O=C(c1ccccc1)c1cccc([N+](=O)[O-])c1	0.2	x
OC(CNC1Cc2ccccc2C1)c1ccccc1 (stereo unspecified)	3.5	x
O=C(NCc1ccco1)c1ccc2c(c1)CCO2	-0.1	x
N#CCc1n[nH]c(=O)c2ccccc12	x	22
Cn1c(=O)c2c(nc(NCCOCCO)n2Cc2ccccc2Br)n(C)c1=O	-0.8	x
Cc1cc(C(=O)N2CCCC2)c2c(C)nn(-c3ccccc3)c2n1	x	-20
COc1ccc(/C=C2\SC(=Nc3cc(C)cc(C)c3)NC2=O)cc1OC	-0.8	x
CCCC1C(C#N)=C(N)SC(N)=C1C#N	9.1	-132
FC(F)(F)C1CCCN(c2nsc3ccccc23)C1 (stereo unspecified)	x	16
COc1cc(C(F)(F)F)nc2c(I)c(C(C)(C)C)nn12	x	-14
COc1ccc(NS(=O)(=O)c2ccc(N3C(=O)CC4(CCCC4)C3=O)c(Cl)c2)c(OC)c1	-0.3	x
CCOc1ccc(S(=O)(=O)/N=C(\N)c2ccccc2)cc1	2.1	4
O=C(O)C1CCN(C(=O)CSc2nnc(-c3ccccc3)c(-c3ccccc3)n2)CC1	x	-3
O=C1C(=O)N(CSc2nnc(-c3ccco3)o2)c2ccccc21	0.2	x
Cc1cc(C)n2nc(CC(=O)N3CCN(c4ccccc4)CC3)nc2n1	1.9	-13
COc1cc(NC(=S)N2CCN(CCO)CC2)c(OC)cc1Cl	-1.3	8
CCN(CC)c1nc(C#N)nc(OC)n1	-1.4	-6
CCN(CC)Cc1c(C)[nH]c2ccccc2c1=O	-0.3	-5
Later entries.
SMILES	MgrA DNA FP	S aureus helic
O=C1OC(Nc2ccc3ncccc3c2)c2ccccc21 (stereo unspecified)	1.9	-1
CC(C)=N/N=c1\sc2ccccc2n1C	x	7
CCN(CC)c1nc(NC(C)(C)C)nc(NC(C)(C)C)n1	0.8	-1
COC(=O)/C=C1/NCC(O)CNC1=O (stereo unspecified)	0.9	x
COc1ccc(NC(=O)c2cc3ccc(O)cc3oc2=Nc2ccc(C(=O)O)cc2)cc1	7.9	-16
Clc1cc(N=Cc2cccnc2)ccc1N=Cc1cccnc1	0.1	-2
COc1ccc(NC(=O)CSCC(N)=O)cc1	5.4	x

Complete entries, quoted from the list. Screens in order: MgrA DNA FP | S aureus helic
CC(C)=N/N=c1\sc2ccccc2n1C as listed: x | 7
COc1ccc(NC(=O)c2cc3ccc(O)cc3oc2=Nc2ccc(C(=O)O)cc2)cc1 as listed: 7.9 | -16
COC(=O)/C=C1/NCC(O)CNC1=O (stereo unspecified) as listed: 0.9 | x
COc1ccc(NC(=O)CSCC(N)=O)cc1 as listed: 5.4 | x
O=C1OC(Nc2ccc3ncccc3c2)c2ccccc21 (stereo unspecified) as listed: 1.9 | -1
